# GLA inh pH 4.5 – blocks human alpha-galactosidase A at pH 4.5. purified enzyme, 4-MU-alpha-Gal fluorescence, pH 4.5. activity change, negative = inhibition, % at 105 µM. 230,000 tested, under 10 active. AID 1467; inconclusive = small, poorly fitted or top-dose-only inhibition, or a rising curve; inactive = flat fitted curve, though single readings scatter; no compound was filed as active;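 note: 0% = full activity with enzyme and -100% = basal without enzyme; dose as in the result columns while the protocol names 77 µM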
# Rango dissoc inh – inhibitors of RanGTP-induced Rango-importin beta complex dissociation | Biochemical FRET Rango-importin beta, RanGTP-induced dissociation | Potency, µM (highest dose often 46.1 µM), for inactives: at the top dose activity change, negative = inhibition | 340,000 tested, 0.071% active | AID 540253; active means falling FRET ratio curve, often poorly fitted, with flat reads before Ran was added; inconclusive means other falling curves, or compound fluorescence or quenching; inactive means flat or rising ratio curve;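 note: potency is the fitted concentration of half-maximal effect; % of control where 0% means no effect; nearly all actives have a fitted effect of over 45% in size; -100% = wells without RanGTP and RCC1; the record marks most hits as doubtful in a second field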
#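 Quantitative HTS using a FRET biosensor: 0.1 uM Rango, 0.25 uM importin beta, 0.6 uM Ran, 2 mM GTP, 0.2 uM RCC1 final, PBS with DTT, Tween-20 and BSA. Post-read taken 45 min after Ran addition.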
# Rango-impB inh – Rango-importin beta binding inhibition | Rango CFP/YFP FRET sensor + importin beta, 45 min | Potency, µM (doses to about 92.2 µM), inactives show top-dose inhibition of complex formation | 340,000 tested, 0.031% active | AID 540263; active = rising FRET ratio curve, often small or poorly fitted; inconclusive = mostly compound fluorescence or quenching in the first reads; inactive = flat curves in all reads;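 note: potency is the fitted concentration of half-maximal effect; 0% = DMSO wells and 100% = buffer wells lacking importin beta; nearly all actives have a fitted effect of over 15% in size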
# Target sequence (Q14974 whole entry, looked up): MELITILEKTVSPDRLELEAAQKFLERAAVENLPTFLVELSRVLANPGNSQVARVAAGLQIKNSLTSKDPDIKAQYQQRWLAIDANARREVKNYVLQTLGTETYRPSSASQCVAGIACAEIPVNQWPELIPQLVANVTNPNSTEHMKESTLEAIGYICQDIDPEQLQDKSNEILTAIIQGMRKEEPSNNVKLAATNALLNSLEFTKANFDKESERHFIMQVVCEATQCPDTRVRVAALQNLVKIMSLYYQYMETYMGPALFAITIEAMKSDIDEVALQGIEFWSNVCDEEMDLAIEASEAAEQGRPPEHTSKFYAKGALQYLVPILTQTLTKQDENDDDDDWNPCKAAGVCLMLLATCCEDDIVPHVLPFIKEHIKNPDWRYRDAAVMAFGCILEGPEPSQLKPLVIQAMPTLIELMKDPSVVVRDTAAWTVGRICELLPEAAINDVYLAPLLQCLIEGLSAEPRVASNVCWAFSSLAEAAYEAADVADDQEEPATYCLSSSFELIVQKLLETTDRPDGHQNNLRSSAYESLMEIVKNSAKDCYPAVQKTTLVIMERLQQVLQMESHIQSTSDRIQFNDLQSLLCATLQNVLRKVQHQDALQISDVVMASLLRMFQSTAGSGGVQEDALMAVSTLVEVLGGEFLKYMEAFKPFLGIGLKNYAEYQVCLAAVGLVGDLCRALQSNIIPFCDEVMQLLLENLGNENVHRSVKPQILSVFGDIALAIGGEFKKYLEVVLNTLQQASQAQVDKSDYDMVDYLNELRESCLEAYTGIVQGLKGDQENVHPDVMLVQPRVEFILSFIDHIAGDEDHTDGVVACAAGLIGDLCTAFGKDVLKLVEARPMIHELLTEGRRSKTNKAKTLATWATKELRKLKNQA
#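 FRET biosensor (snurportin 1 IBB flanked by EYFP and cerulean), 50 nM, with compound 5 min, then 0.125 microM importin beta in PBS, 1 mM DTT, 0.02% Tween-20, 0.1% BSA. CFP/YFP ratio read after 45 min at room temperature; pre-read flags interference.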
# miR-21 reporter – raises the signal of a miR-21 reporter | HeLa miR-21 FLuc reporter, luciferase, 48 h | Potency, µM (highest dose often 38.3 µM), for inactives: at the highest dose reporter change, positive = more light | 340,000 tested, under 10 active; active = well fitted rising curve with a large enough effect; inconclusive = small, poorly fitted or top-dose-only effect; inactive = no such curve, though single readings can be large or run the other way;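 note: % of control where 0% means no effect; miR-21 action dims this reporter so a rising signal means less miR-21 action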
#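 HeLa miR-21-FLuc reporter line, endogenous miR-21; 2000 cells/well in DMEM/10% FBS; compound titration up to ~40uM final, 48 h, 37 degree Celsius; luciferase detection reagent, 15 min lysis, CCD luminescence.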
# Numbers without * were called inactive; ? = inconclusive; / = no result given. Not all compounds are listed. The share of hits here may be higher or lower than overall.
compound	GLA inh pH 4.5	Rango dissoc inh	Rango-impB inh	miR-21 reporter
O=C(Cn1cc([N+](=O)[O-])cn1)Nc1ccn(Cc2c(F)c(F)c(F)c(F)c2F)n1	-1	-4%	-0.8%	-4%
COc1ccc2nc(C)cc(Sc3nc4ccccc4s3)c2c1	-7	29%	-3.4%	?
CCc1ccc(-c2ccc3nnc(SC)n3n2)cc1	/	14%	-2.3%	-42%
COc1cc(OC)c(OC)cc1CNc1nnnn1C	/	1%	4.5%	3%
CCCCC(=O)N1CCN(c2nc(-c3ccc(F)cc3)cs2)CC1	/	-1%	-3.8%	2%
CC(=O)Nc1nc(NC(=O)C(Cl)(Cl)Cl)n(-c2ccccc2)n1	-13	0%	0.2%	6%
CCCCN(C(=O)C1CCN(C(=O)c2ccccc2C)CC1)c1c(N)n(CC(C)C)c(=O)[nH]c1=O	/	-2%	0.1%	/
COc1ccc(C(=O)CSc2cc(C)nc(SCC(=O)c3ccc(C)cc3)n2)cc1	2	-13%	-4.2%	0%
Cc1ccc(-c2cc(C(=O)Nc3cc(C)ccc3O)no2)cc1	/	-11%	-2.3%	-13%
CCN1C(=O)c2cccc3c(Cl)ccc(c23)C1=O	5	-6%	1.2%	1%
Cn1cc(CCNC(=O)c2ccc3nc(Cc4ccccc4F)oc3c2)cn1	/	1%	-0.3%	-49%
COc1cc(C2(c3ccc(O)c(OC)c3)C(=O)Nc3c(C)cc(Br)cc32)ccc1O	/	1%	2.0%	/
CN1CCN(/C(=N\S(=O)(=O)c2ccc(F)cc2)c2ccccc2)CC1	-4	2%	-0.4%	-3%
CCO[C@H]1OC(C(=O)NCc2nc3ccccc3[nH]2)=C[C@@H](C2CC2)[C@@H]1CCCO	4	-3%	0.5%	20%
Cc1ccc(CNC(=O)CCS(=O)(=O)c2ccc(Br)cc2)cc1	-4	0%	-2.0%	-3%
N#Cc1cccnc1Nc1ccc(Cl)cc1	10	9%	6.8%	-9%
O=C(Nc1ccc(N2CCN(C(=O)c3cccs3)CC2)cc1)c1ccccc1Cl	/	-9%	3.7%	28%
S=c1[nH]nc(-c2cccs2)n1/N=C/c1c(Cl)cccc1Cl	-29	-7%	-1.3%	-8%
O=C(c1cccnc1)N(Cc1ccccc1)C1(C(=O)Nc2ccccc2)CCCCC1	-6	1%	-0.6%	-1%
COc1ccccc1N(Cc1cc2ccc(C)cc2[nH]c1=O)C(C)=O	/	-4%	0.1%	-1%
COc1ccc(C(C(=O)OC(C)CN(C)C)c2ccccc2)cc1 (centres undefined)	-12	-8%	2.5%	-4%
Cc1ccc(/C=C2/NC(=O)[C@H](C)NC2=O)cc1	/	1%	2.1%	-24%
CCN(CC)C(=O)Cc1c(OC)ccc2cc(Br)ccc12	3	14%	-0.6%	-6%
CC(=O)Nc1ccc(C(=O)NC2CCCC2)cc1	-5	15%	2.5%	-1%
O=C(Nc1nnc(-c2ccccc2)o1)c1cccc(S(=O)(=O)N2CCOCC2)c1	/	0%	2.4%	/
CC1CC(C)(C)N(C(=O)CSc2ccc(-c3ccc(F)cc3)nn2)c2ccccc21 (centres undefined)	-23	11%	-3.8%	?
Cc1ccccc1CS(=O)(=O)Cc1ccc(C(=O)NCCCN2CC(C)CC(C)C2)o1 (centres undefined)	-1	15%	-0.9%	-1%
CCCCNc1c(-c2cccc(-c3cc(C(C)=O)cs3)c2)nc2ccc(C)cn12	/	35%	5.0%	/
CN1CCN(CC(=O)O)CC1	-6	-6%	-5.5%	2%
CCn1nnc(-c2ccccc2NS(=O)(=O)c2ccc(S(=O)(=O)N(C)C3CCCCC3)cc2)n1	-2	7%	1.4%	-1%
c1coc(-c2nc3nc4ccccc4n3nc2-c2ccco2)c1	1	4%	0.0%	-4%
COc1ccc(N2CCN(CC(=O)NC(=O)NCc3ccccc3)CC2)cc1	/	-12%	1.7%	/
Cc1ccc(/C(N)=N/OC(=O)c2ccc3ccccc3c2)cc1	/	-9%	1.1%	-10%
COC(=O)CCc1sc(Nc2ccccc2)nc1-c1ccc(OC)cc1	-16	7%	1.1%	-63%
C/C=C/c1ccccc1OCc1ccc(C(=O)OC)o1	-4	-2%	0.6%	-15%
Cn1c(-c2ccccc2)c(CCO)c2ccccc21	-5	-15%	-4.1%	8%
COc1cccc(/C=C/C(=O)OCC(=O)NCC2CCCCC2)c1OC	/	-1%	-3.9%	/
COC(=O)C1=C(N)N(c2ccccc2F)C2=C(C(=O)CC(C)(C)C2)C1c1ccc(OC)c(OC)c1 (centres undefined)	-17	4%	-3.3%	-1%
O=C(c1ccncc1)N1N=C(c2ccc(Br)cc2)CC1c1ccccc1O (centres undefined)	/	-14%	-4.6%	?
CCOc1cccc(NC(=O)C2CC(=O)NC(=Nc3ccccc3)S2)c1 (centres undefined)	-6	-3%	-0.2%	-1%
CN(C)CCN(C(=O)c1ccc(S(=O)(=O)N(C)C)cc1)c1nc2cc3c(cc2s1)OCCO3	-3	14%	0.2%	-33%
N#Cc1ccccc1CN1C(=O)S/C(=C/c2cccn2-c2ccc(C(=O)O)cc2)C1=O	2	17%	-0.9%	-3%
COc1ccc(-c2cc(=O)oc3cc(OCC(C)=O)ccc23)cc1	2	-7%	-2.0%	-23%
CN1CCN(C(=O)c2cc([N+](=O)[O-])ccc2Cl)CC1	/	4%	-1.4%	1%
C=CCNC(=O)c1ccccc1NC(=O)COc1ccccc1	-7	-9%	-5.4%	-17%
Cc1cccc(C2C3=C(CCCC3=O)N=C3c4ccccc4C(=O)C32)c1 (centres undefined)	-6	-4%	-0.9%	8%
CC1=CN2C(=N)/C(=C/c3cn(CCCOc4ccccc4C)c4ccccc34)C(=O)N=C2S1	-5	4%	-1.6%	-47%
CC(C)c1ccc(NC2CCCN(C(=O)CCN3CCCC3=O)C2)cc1 (centres undefined)	/	-4%	5.2%	-5%
Cc1ccc(C(=O)O)cc1NC(=S)NC(=O)c1ccc(-c2ccc(Cl)cc2)o1	-11	-13%	-0.3%	-4%
CC1CCc2sc(C(=O)N/N=C/c3ccc([N+](=O)[O-])cc3)cc2C1 (centres undefined)	-1	-17%	?	-4%

# Given as labelled records: part of the list above
Cc1ccc(C(=O)O)cc1NC(=S)NC(=O)c1ccc(-c2ccc(Cl)cc2)o1
- GLA inh pH 4.5: -11
- Rango dissoc inh: -13%
- Rango-impB inh: -0.3%
- miR-21 reporter: -4%

N#Cc1ccccc1CN1C(=O)S/C(=C/c2cccn2-c2ccc(C(=O)O)cc2)C1=O
- GLA inh pH 4.5: 2
- Rango dissoc inh: 17%
- Rango-impB inh: -0.9%
- miR-21 reporter: -3%

CN(C)CCN(C(=O)c1ccc(S(=O)(=O)N(C)C)cc1)c1nc2cc3c(cc2s1)OCCO3
- GLA inh pH 4.5: -3
- Rango dissoc inh: 14%
- Rango-impB inh: 0.2%
- miR-21 reporter: -33%

# (cont.)
compound	GLA inh pH 4.5	Rango dissoc inh	Rango-impB inh	miR-21 reporter
Cc1c(NC(=O)C2CCCNC2=O)c(=O)n(-c2ccccc2)n1C (centres undefined)	-10	-1%	-2.8%	0%
S=C(NCc1ccccc1)N1CCn2cccc2C1c1cccnc1 (centres undefined)	-15	-6%	-5.3%	6%
COc1ccc(NC(=O)c2n[nH]c(=O)c3ccccc23)cc1S(=O)(=O)N1CCCCC1	-8	-2%	2.3%	29%
COC1(OC)C=CC(=O)C=C1NC(=O)c1ccccc1OC(C)=O	/	-5%	0.5%	/
CC(C)C(=O)Nc1nnc(SCC(=O)Nc2ccc3c(c2)OCCO3)s1	-25	12%	?	29%
CC(C)c1cc(C(F)(F)F)n2nc(C(=O)Nc3ccc(-n4cnnn4)cc3)cc2n1	1	-14%	-2.2%	2%
O=c1[nH]cccc1-c1nc2ccccc2n1Cc1ccc(Cl)cc1	/	7%	-0.6%	2%
Cc1cc(C)n(CCc2nc3c4ccccc4n(CC#N)c(=O)n3n2)n1	0	15%	-0.2%	1%
COc1ccc(CNC(=S)NCc2ccc(OC)cc2)cc1	1	0%	0.8%	-8%
O=C(CN1CCC(O)(c2ccc(F)cc2)CC1)NCc1ccc(F)cc1	1	10%	-6.3%	2%
Cc1cc2c(cc1C)N(CC(=O)N1CCCC1)C(=O)CC(c1ccccc1)=N2	-9	-3%	2.1%	-53%
Oc1ccc(Cl)cc1C1=NNC(c2cccs2)C1 (centres undefined)	-6	1%	?	-51%
NC(=O)c1cc(N2C(=O)C=CC2=O)ccc1Cl	0	-5%	-1.8%	19%
C=CCNC(=S)NNC(=O)c1cc(-c2cccnc2)nc2ccccc12	/	-6%	4.8%	-3%
CCOC(=O)C1=C(Cn2cnc3ccccc32)NC(=O)NC1c1ccc(Cl)cc1 (centres undefined)	-30	37%	-0.8%	6%
CSc1sc(-c2ccnc(SCC(=O)C(C)(C)C)n2)c2c1C(=O)CC(C)(C)C2	-9	?	0.2%	-11%
CCOC(=O)C1=C(O)/C(=C\c2ccc(CNS(=O)(=O)c3ccc(Br)cc3)o2)N=C1C	1	?	?	-2%
O=C(CCCC(=O)OCC(F)(F)C(F)F)Nc1nccs1	-5	-5%	0.3%	-13%
Cc1cc(Cn2ccnc2)c(C)cc1Cn1ccnc1	6	-12%	0.4%	-2%
COc1ccc(O)c(/C=N/c2nc3ccccc3n2C)c1	/	5%	-1.6%	-8%
O=C(C1CCCN(S(=O)(=O)c2cnc[nH]2)C1)N(CCc1ccccc1)Cc1ccccc1 (centres undefined)	-6	-16%	0.9%	-12%
COc1ccc(-c2c(C#N)c(N)nc3c2CCCC3)cc1OC	/	-9%	-3.0%	/
CCc1cc(C(=O)N=Nc2c(O)[nH]c3ccc([N+](=O)[O-])cc23)c2ccccc2n1	-12	6%	?	-1%
Nc1nc(SCCO)[nH]c(=O)c1NC(=O)c1ccco1	/	-20%	-0.4%	/
Cc1[nH]c2ccccc2c1/C=N/Nc1nc(N2CCCCC2)nc(N2CCCCC2)n1	-7	-1%	0.1%	-2%

# Among those listed so far, six have a furan ring, fused or not.
compound	GLA inh pH 4.5	Rango dissoc inh	Rango-impB inh	miR-21 reporter
Cc1ccccc1CS(=O)(=O)Cc1ccc(C(=O)NCCCN2CC(C)CC(C)C2)o1 (centres undefined)	-1	15%	-0.9%	-1%
c1coc(-c2nc3nc4ccccc4n3nc2-c2ccco2)c1	1	4%	0.0%	-4%
C/C=C/c1ccccc1OCc1ccc(C(=O)OC)o1	-4	-2%	0.6%	-15%
Cc1ccc(C(=O)O)cc1NC(=S)NC(=O)c1ccc(-c2ccc(Cl)cc2)o1	-11	-13%	-0.3%	-4%
CCOC(=O)C1=C(O)/C(=C\c2ccc(CNS(=O)(=O)c3ccc(Br)cc3)o2)N=C1C	1	?	?	-2%
Nc1nc(SCCO)[nH]c(=O)c1NC(=O)c1ccco1	/	-20%	-0.4%	/

# (list continues)
compound	GLA inh pH 4.5	Rango dissoc inh	Rango-impB inh	miR-21 reporter
CCCN(CC(=O)Nc1c(C)cccc1CC)C(=O)SCC	4	17%	1.1%	-1%
CCOc1ccc(NC(=O)C(c2ccccn2)N(C(=O)CCl)c2ccc(F)cc2)cc1 (centres undefined)	2	5%	-0.2%	-27%
CCn1c(CNC(=O)COc2ccc(C(C)C)cc2)nnc1SCC(=O)Nc1cc(F)ccc1C	2	1%	-1.2%	17%
CNC(=O)[C@@H]1C[C@H]1[C@@H](NC(=O)CNC(=O)OCc1ccccc1)c1ccccc1	3	3%	-1.9%	/
CC(=O)Nc1cccc(Oc2nc(-c3ccccn3)nc3ccccc23)c1	-11	2%	11%	-27%
O=c1oc2ccccc2cc1-c1csc(Cc2nc(-c3ccc(Cl)cc3)cs2)n1	-2	0%	4.8%	0%
N=C1C(c2nc3ccccc3s2)=C(O)CN1NC(=O)c1c[nH]c2ccccc12	0	-1%	0.1%	2%
O=Cc1ccc(-n2cc(C=O)c3ccccc32)cc1	-6	-18%	2.4%	-12%
O=C1C2CC=C(Cl)CC2C(=O)N1CN(Cc1ccco1)CN1C(=O)C2CC=C(Cl)CC2C1=O (centres undefined)	-7	-11%	-0.7%	-2%
CCc1n[nH]c(=S)n1/N=C/c1c[nH]c2ccc(Br)cc12	1	2%	-0.3%	0%
